High-throughput results from PubChem BioAssay.
Cruzain noTriton = qHTS Assay for Promiscuous and Specific Inhibitors of Cruzain (without detergent); Cruzipain (Trypanosoma cruzi), P25779; purified cruzain, Z-FR-AMC fluorescence, no detergent; Potency, µM, for inactives: max response, negative = inhibition, usual class: inhibitors; 200,000 compounds, 2.3% hits; AID 1476, 2009; active means well fitted curve in the direction sought with a large enough effect; inconclusive means small, poorly fitted or top-dose-only effect, or another doubt; inactive means no such curve, though single readings can be large; an effect the other way counts as inactive or inconclusive;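 further: plate controls were enzyme without inhibitor for no effect and buffer without enzyme for full effect; nearly all actives have a fitted effect of over 40% in size; top concentration of the series not given in the record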
Target sequence (P25779 123-467 limits assumed): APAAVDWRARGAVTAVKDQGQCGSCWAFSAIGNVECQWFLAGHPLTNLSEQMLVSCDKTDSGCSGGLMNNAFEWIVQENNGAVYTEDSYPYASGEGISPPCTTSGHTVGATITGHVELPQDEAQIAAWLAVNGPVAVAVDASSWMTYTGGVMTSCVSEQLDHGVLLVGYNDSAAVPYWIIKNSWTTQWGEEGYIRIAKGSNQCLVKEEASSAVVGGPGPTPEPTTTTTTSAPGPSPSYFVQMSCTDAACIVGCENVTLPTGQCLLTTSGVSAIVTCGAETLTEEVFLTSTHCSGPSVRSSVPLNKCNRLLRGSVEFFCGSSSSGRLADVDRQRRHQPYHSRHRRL
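Purified cruzain at 1.5 nM, pre-incubated 15 min with compound at room temperature in 100 mM sodium acetate pH 5.5, 5 mM DTT, 0.00005% Triton X-100. Reaction started with 2 uM Z-FR-AMC; AMC fluorescence increase over 60 s gives rate.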
Cruzain inh Det = qHTS Assay for Promiscuous and Specific Inhibitors of Cruzain (with detergent); 200,000 compounds, 0.43% hits; AID 1478, 2009; Potency, µM, without a hit: max response, negative = inhibition, hits mostly inhibitors; purified cruzain, Z-FR-AMC fluorescence, 0.01% Triton; active means well fitted curve in the direction sought with a large enough effect; inconclusive means small, poorly fitted or top-dose-only effect, or another doubt; inactive means no such curve, though single readings can be large; an effect the other way counts as inactive or inconclusive;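 further: plate controls were neutral wells for no effect and buffer without enzyme for full effect; nearly all actives have a fitted effect of over 40% in size; top concentration of the series not given in the record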
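Detergent-containing arm of a paired screen for aggregation-based inhibition: 0.01% Triton X-100 present. Cruzain at 1.5 nM cleaved 2 uM Z-FR-AMC at pH 5.5 with 5 mM DTT; AMC fluorescence gain over 60 s measured activity.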
RE007 growth inh = qHTS Assay for Inhibitors of the HIV-1 protein Vpr. S. pombe RE007 Vpr strain, BacTiter-Glo ATP luminescence, 24 h; control for the full effect not named in the record. Potency, µM (top dose mostly 92.2 µM), for the others: top-dose activity change, negative = less growth. 360,000 compounds, 0.21% hits. AID 651644, 2012; active = well fitted falling curve with a large enough effect; inconclusive = small, poorly fitted or top-dose-only effect; inactive = no such curve, though single readings can be large or run the other way;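 further: on the % scale 0 is the no-effect control and ±100 the full control effect; nearly all actives have a fitted effect of over 50% in size; the assay follows cell death caused by Vpr and the record does not say whether a fall means rescue or toxicity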
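Fission yeast strain RE007, carrying one chromosomally integrated HIV-1 vpr copy, was seeded at OD 0.01 in PMG+AL medium with 23 nL pinned compound. After 24 h at 30 °C and 99% humidity, viability was read by BacTiter-Glo luminescence.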
Marburg entry inh = qHTS for inhibitors of binding or entry into cells for Marburg Virus; Marburg virus pseudotyped entry inhibition, cell reporter; control for the full effect not named in the record; about a third of the inactives were read at about 46 µM; Potency, µM (doses to about 37.8 µM), without a hit: at the highest dose activity change, negative = inhibition, most hits filed as inhibitors; AID 540276, 2011; 300,000 compounds, 1.8% hits; active = well fitted inhibition curve with a large enough effect; inconclusive = small, poorly fitted or top-dose-only effect, or effect the other way; inactive = flat fitted curve, though single readings scatter; tested in HEK293 cells; about a fifth of its hits are not listed in these tables; further: on the % scale 0 is the no-effect control and ±100 the full control effect; luciferase read-out
Lassa entry inh = qHTS for Inhibitors of binding or entry into cells for Lassa Virus | Potency, µM (doses to about 37.9 µM), without a hit: top-dose activity change, negative = inhibition, hits mostly inhibitors | 300,000 compounds, 1.2% hits | Lassa virus pseudotype entry inhibition, cell reporter; control for the full effect not named in the record; active means well fitted inhibition curve with a large enough effect; inconclusive means small, poorly fitted or top-dose-only effect, or effect the other way; inactive means flat fitted curve, though single readings scatter; tested in HEK293 cells; further: on the % scale 0 is the no-effect control and ±100 the full control effect; nearly all actives have a fitted effect of over 50% in size; luciferase read-out
NS1 inh = qHTS Assay for Inhibitors of Influenza NS1 Protein Function. S. cerevisiae slowed by influenza A NS1, growth recovery by OD600. Potency, µM (doses to about 46.1 µM), without a hit: top-dose activity, positive = more growth. 270,000 compounds, 0.4% hits. AID 2326, 2010; further: actives are rising curves; nearly all actives have a fitted effect of over 50% in size
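A cell-based growth assay was used: compounds that relieve NS1-induced slow growth of budding yeast raise OD600. Assay medium was yeast nitrogen base with ammonium sulphate and -URA supplement, pH 6.0, with 2% galactose.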
SARS PLP yeast = qHTS of Yeast-based Assay for SARS-CoV PLP; AID 485353, 2010; Potency, µM (titrated, usually from 32.9 µM), inactives show at the top dose activity, positive = growth rescue; S. cerevisiae expressing SARS-CoV PLpro, growth rescue; control for the full effect not named in the record; 330,000 compounds, 0.19% hits; further: 0% is about no effect; nearly all actives have a fitted effect of over 55% in size; growth read by luminescence after 48 h
StopGo reporter = High Throughput Screening for Foot and Mouth Disease Virus Antivirals | human cells with a luciferase reporter of 2A StopGo recoding; control for the full effect not named in the record | Potency, µM (doses to about 57.9 µM), for inactives: at the highest dose signal change, negative = less light | 410,000 compounds, 1.2% hits; active = well fitted falling curve with a large enough effect; inconclusive = small, poorly fitted or top-dose-only effect; inactive = no such curve, though single readings can be large or run the other way; tested in HEK293T cells; further: on the % scale 0 is the no-effect control and ±100 the full control effect; nearly all actives have a fitted effect of over 45% in size; luciferase light after 4 h
Active calls of the source: *; ? = inconclusive; / = no result given; & = joins results of further samples; [ ] = remark or other dose. Unless noted, the call rests on the fitted dose curve; in most records, active means well fitted rising curve with a large enough effect; inconclusive means small, poorly fitted or top-dose-only effect; inactive means no such curve, though single readings can be large or run the other way. Potency means the concentration at half of the fitted maximal effect.

SMILES	Cruzain noTriton	Cruzain inh Det	RE007 growth inh	Marburg entry inh	Lassa entry inh	NS1 inh	SARS PLP yeast	StopGo reporter
CCc1ccccc1N(CC(=O)NCC1CCCO1)C(=O)CCC(=O)Nc1cc(C)on1 (configuration not stated)	/	/	-5%	-8%[46.1 µM]	7%	7%	-12%	-14%
Cc1cccc(N(C(=O)C(F)(F)F)C(C(=O)NC2CCCCC2)c2cccs2)c1 (configuration not stated)	?	0.2%	7%	?	-1%	21%	-1%	32%[activator]
CCOC(=O)c1c(NC(=O)Cc2cccs2)sc(C(=O)NC2CCCCC2)c1C	?	3.7%	-3%	-1%	0%	-6%	1%	-7%
CNC(=O)c1nc(C)n(-c2ccc([N+](=O)[O-])cc2)n1	/	/	28%	-2%[46.1 µM]	-27%[46.1 µM]	/	0%	-7%
CCO[C@@H]1OC(C(=O)NCc2ccccc2)=C[C@H](c2ccc(C(F)(F)F)cc2)[C@H]1CCCO	/	/	6%	/	/	11%	-3%	0%
CCOc1ccc(CN2CCc3nc(N4CCN(c5ccccn5)CC4)ncc3C2)cc1OC	0%	-2.7%	/	/	?	/	/	13µM*
O=C(CSc1ccccn1)Nc1ccccc1F	7%	0.5%	-5%	3%	5%	-15%	-14%	42%[activator]
CCOC(=O)C1CCN(C(=O)c2cc3c(OC)c(OC)c(OC)cc3[nH]2)CC1	/	/	13%	20%	15%	2%	1%	23%
COc1cccc(NC(=O)C(=S)NC2CCCCC2)c1	/	/	-23%	?	?	-7%	-3%	2%
O=C(NCc1ccoc1)c1ccc(NC(=O)c2ccccc2Cl)cc1	-16%	-6.9%	17%	4%	0%	5%	-4%	-14%
Nn1c(SCC(=O)NC(=O)Nc2ccc3c(c2)OCCO3)nnc1C1CC1	/	/	15%	?	16%	/	0%	15%
O=C(CCN1C(=O)COc2ccccc21)N1CCN(c2ccccn2)CC1	1%	-1.9%	-15%	9%	?	4%	1%	/
CCOC(=O)N1CCN(CCC(=O)Nc2cccc(F)c2)CC1	-15%	-0.8%	/	5%[46.1 µM]	4%[46.1 µM]	/	/	-20%
COC(=O)C(C)Sc1ccc2nnc(-c3ccc(F)cc3)n2n1 (configuration not stated)	-8%	4.0%	-3%	-2%	?	-1%	6%	6%
CCOC(=O)c1cnn(-c2nc(-c3ccccc3F)cs2)c1C(F)(F)F	0%	-6.2%	?	?	-22%	4%	-12%	2%
O=C(COc1ccc(S(=O)(=O)N2CCCC2)cc1)NCc1ccco1	-1%	-0.4%	-1%	10%	4%	-2%	6%	-8%
O=C(NC1CCCCC1)C(Cc1ccccc1)N1C(=O)C2C3CCC(C3)C2C1=O (configuration not stated)	-2%	5.2%	-6%	-1%	9%	6%	-3%	/
CCCCNC(=O)C1CCC(=O)N1CCc1ccccc1 (configuration not stated)	/	/	5%	14%[46.1 µM]	-12%[46.1 µM]	0%	-1%	-4%
Cc1cccc(-n2c(N)cc(=O)nc2SCC(=O)NC2CCCCC2)c1	-11%	-15%	9%	-3%	0%	-2%	1%	6%
CC(C)(C)c1cc[n+](C2=C([O-])c3ccccc3C(=O)/C2=N\S(=O)(=O)c2ccccc2)cc1	/	/	0%	9%[14.2 µM]	-4%	-3%	-2%	?
Cc1ccccc1OCc1nc2ccccc2c(=O)n1/N=C/c1ccco1	-19%	-23%	7%	5%&5%	-9%	-11%	-16%	-12%
CCCCc1c(O)nc(SCC(=O)c2ccccc2)[nH]c1=O	17%	2.2%	-13%	-18%	20%	?	3%	-13%
O=C(N/N=C/c1ccccc1[N+](=O)[O-])c1ccc(COc2ccccc2-c2ccccc2)cc1	13µM*	-4.7%	-5%	?	-7%	23%	26%	-15%
O=C(NCCCN1CCCC1=O)c1ccc2c(c1)OCO2	-25%	-1.4%	11%	10%	11%	-2%	1%	32%[activator]
CC(=O)Nc1ccc(NC(=S)NC(=O)/C=C/c2ccco2)cc1	/	/	-19%	-12%[46.1 µM]	-3%[46.1 µM]	13%	5%	-7%
COc1cc2c(cc1OC)C(COc1cccc(C(F)(F)F)c1)NCC2 (configuration not stated)	/	/	3%	/	/	9%	-3%	?
CCOC(=O)c1[nH]c2ccc(F)cc2c1NC(=O)CCN1CCSCC1	3%	0.6%	-10%	-11%	13%	2%	-5%	-4%
COc1c(C)cc(C(=O)C2CCCN(C(=O)CCCn3cncn3)C2)cc1C (configuration not stated)	/	/	-9%	/	/	-3%	1%	-21%
CC(C)CCNC(=O)CNC(=S)N(Cc1ccccc1)Cc1cccnc1	7%	0.2%	3%	-11%	?	2%	7%	16%
N#C/C(=C(/O)c1ccco1)c1nc2ccccc2s1	-26%	-2.5%	?	?	14%	-53%	-6%&-38%	33%&-8%[activator]
COc1ccc(N(CC(=O)N2CCN(c3ccccc3F)CC2)S(=O)(=O)c2c(C)noc2C)cc1	-6%	-1.0%	5%	21%&13%[46.1 µM]	-2%&24%[46.1 µM]	3%	-3%	-14%&-1%
CC(=O)c1ccc(NC(=O)CSc2nc(C3CC3)nc3ccccc23)cc1	/	/	-5%	?	?	-14%	-1%	-4%
CC(NC(=O)c1cc([N+](=O)[O-])cc([N+](=O)[O-])c1)C1CC2CCC1C2 (configuration not stated)	/	/	20%	?	-12%[46.1 µM]	-4%	-30%	-23%
CCOC(=O)C1(Cc2cccc(Cl)c2)CCCN(C(=O)c2cc(CC)on2)C1 (configuration not stated)	/	/	1%	?	?	-42%	6%	23%
Fc1ccccc1CN1CCC(Cc2ccccc2)CC1	/	/	-12%	-6%	-25%	-6%	1%	0%
Cc1nc([N+](=O)[O-])c(C(=O)OCc2ccccc2)n1C	/	/	-14%	6%[46.1 µM]	-1%[46.1 µM]	/	0%	2%
CCC1CCCCN1CCN1C(=O)C2C(C(=O)Nc3cccc(OC)c3)C3C=CC2(O3)C1C(=O)NC1CCCCC1 (configuration not stated)	/	/	5%	?	12%[46.1 µM]	-9%	4%	-9%
COC(=O)c1[nH]c2cc(OC)ccc2c1NC(=O)CCN1CCCC(C)(C)C1	-4%	1.0%	-6%	10%&10%	24%	11%	3%	-2%
O=C(Nc1ccc2nc3n(c(=O)c2c1)CCCC3)c1ccccc1[N+](=O)[O-]	-16%	-7.7%	-6%	-26%	-5%	0%	14%	23%
O=C(Oc1ccc(Br)cc1)c1cncc(Br)c1	-5%	2.4%	3%	5%	2%	-5%	-6%	/
O=C(COc1ccccc1)Nc1c2c(nn1-c1ccccc1)CS(=O)C2 (configuration not stated)	/	/	8%	1%	7%	?	5%	-25%
Cc1noc(C)c1COc1cccc(C(=O)Nc2cccnc2)c1	/	/	-14%	-19%	2%	/	-3%	-11%
CCC(Sc1nc2ncccc2o1)C(=O)Nc1ccc(OC)c(OC)c1 (configuration not stated)	-2%	-1.2%	/	/	?	/	/	-17%
Cc1c(NC(=O)c2cccc(NC(=O)COc3ccccc3C#N)c2)c(=O)n(-c2ccccc2)n1C	/	/	22%	?	?	/	2%	?
COc1ccc(CCNC(=O)c2nnn(-c3cc(C)cc(C)c3)c2N)cc1OC	11%	-0.1%	-2%	?	-24%	16%	-3%	?
Cn1c(O)c(/C=N/c2ncccn2)c(=O)n(C)c1=O	-7%	-8.7%	0%	6%	13%	2%	1%	-11%
Nn1cc(-c2ccccc2)nc1SCC(=O)NC1CCS(=O)(=O)C1 (configuration not stated)	1%	-0.2%	-6%	9%	6%	-5%	-4%	6%
CCCc1cc(C(=O)O)c2ccccc2n1	-4%	3.5%	-2%	-1%	23%	7%	12%	5%
CN1CCC(OC(c2ccccc2)c2ccc(Cl)cc2)C1 (configuration not stated)	/	/	1%	7.1µM*	?	/	/	-12%
CCN1CC(CN(C)Cc2nc(-c3ccc(C(F)(F)F)cc3)oc2C)CC1=O (configuration not stated)	/	/	-4%	3%[46.1 µM]	-5%	-4%	1%	?
CCCCc1nc(N2CCN(C(=O)c3ccco3)CC2)c(C#N)c2c1CCCC2	/	/	10%	/	/	-33%	-8%	?
O=C(CCC(=O)Nc1cccc(C(F)(F)F)c1)NCC1CCCO1 (configuration not stated)	/	/	0%	?	1%[46.1 µM]	24%	-1%	-14%
COc1ccc(-c2nn(C)c3sc(C(=O)N4CCN(c5cccc(Cl)c5)CC4)cc23)cc1OC	-7%	-0.2%	/	-13%[46.1 µM]	?	/	/	-24%
CCOC(=O)N1CCN(C/C(Cl)=C/c2ccccc2)CC1	/	/	24%	21%	?	-33%	-7%	29%
CCCSc1nnc(C(C)C)n1N	-13%	6.7%	-2%	23%	?	8%	12%	10%
Cc1ccc(C(=O)N(Cc2ccco2)Cc2ccco2)cc1	6%	-2.1%	/	26%[46.1 µM]	2%[46.1 µM]	/	/	-10%
Cc1[nH]c2ccccc2c1C(=O)NS(=O)(=O)Nc1ccc(Cl)cc1	/	/	-4%	5%[46.1 µM]	2%[46.1 µM]	/	2%	8%
COc1ccc(N2CCN(c3n[nH]c(N)n3)CC2)cc1	/	/	10%	10%[46.1 µM]	-2%	-4%	1%	6%
CSc1nsc(SC)c1NC(=O)OCCc1ccccn1	1%	8.1%	1%	20%	0%	5%	6%	16%
COc1ccc(C(=O)N2CC3(CC(c4cccc([N+](=O)[O-])c4)=NO3)C[C@H]2C(=O)NCC(N)=O)cc1 (some centres not stated)	?	-1.5%	7%	-2%	/	-21%	12%	-4%
CCCOc1ccc(C2C(=O)N(C3CCCCC3)CC(=O)N2C2CC2)cc1OC (configuration not stated)	-3%	7.2%	2%	-1%	1%	0%	1%	-1%
